From PubChem
Mtb hypoxia inh: PubChem AID 1159583. M. tuberculosis hypoxia-regulated fluorescent reporter, fluorescence. fluorescence inhibition, % (concentration not given with the values). actives 0.1% (n = 300,000);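 active = 35 to 45% if threefold the growth effect, above 45% if 1.5-fold the growth effect; inactive = the rest, general growth blockers included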;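 note: wells of about 50 µL received 100 nL stock; 0% = vehicle wells and 100% = reference inhibitor wells; whole bacteria with a GFP reporter of the hypoxia response; strong numbers were not always called active; many hits fall short of the cut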
ugtP null kill: growth inhibition of ugtP-null S. aureus, primary screen, RN4220 ugtP deletion, OD600; AID 1259309, 2017; 16 h; some inactives read as strong as hits; actives 0.54% (n = 330,000); growth inhibition, % (concentration not given with the values);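 active = z-score under -3 and OD600 up to 0.15 on both plates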;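 note: plate controls were untreated wells for no effect and antibiotic for full effect; wells of about 80 µL received 100 nL stock; the first replicate is given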
PrP 5UTR inh: inhibition of PrP 5' UTR reporter expression; cell-based PrP 5' UTR mRNA reporter, plate reader; inhibition, % (test concentration not listed); actives 0.35% (n = 340,000); AID 488862, 2010;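 active = every replicate at 50% or more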;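 note: 0 = median of the neutral control wells; tested in H4 reporter cells; numbers are from one replicate; inactives centre near -14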
BJeLR lethal: MLPCN primary cell-based screen for lethality selective to Ras in HRASV12 cells; BJeLR (HRASV12) viability, CellTiter-Glo ATP luminescence, 48 h; reference of the scale not given here; inhibition, % (no concentration beside the values); actives 0.17% (n = 300,000); AID 1554, 2009;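 active = replicate mean above 50%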;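 note: 50 nL library stock added to about 25 µL; numbers are from one replicate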
Sa RN4220 lethal: growth inhibition of S. aureus RN4220, primary screen, OD600. 16 h. inhibition, % (test concentration not listed). actives 0.33% (n = 330,000);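 active = z-score of -3 or lower and OD600 up to 0.18 on both plates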;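 note: plate controls were untreated cells for no effect and reference antibiotic for full effect; stock transfer was 100 nL into about 80 µL; one replicate is shown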
Bead autofluor: compound fluorescence in toxin protease inhibitor counterscreen. compound autofluorescence counterscreen, microsphere flow cytometry; stronger effect = higher value. fluorescence intensity (no concentration beside the values). actives 3.1% (n = 360,000). AID 624483;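 active = at least 3 SD above the mean of all compounds, about 16000 in these data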;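 note: 100 nL of 1 mM stock went into each well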
Mtb hypoxia inh growth: also measured in Mtb hypoxia inh; calls as there; growth inhibition, %; measured here: M. tuberculosis growth (absorbance);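 0% = vehicle and 100% = reference antibiotic; read after six days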
Starred values were filed as active, the others as inactive; · = not tested or not shown; & = joins results of further samples.

SMILES	Mtb hypoxia inh	Mtb hypoxia inh growth	ugtP null kill	PrP 5UTR inh	BJeLR lethal	Sa RN4220 lethal	Bead autofluor
CCCCCCc1nnc(N)s1	17	3	15	-8	-7	6.4	15679
O=C(NCc1cccs1)c1ccc(S(=O)(=O)N2CCCCC2)cc1	2	-2	2	-5	-4	5.4	4532
COc1cccc(/C=C2\N=C3CCCCCN3C2=O)c1	-1	-1	-7	-52	7	4.9	3833
Cc1ccccc1C(=O)Nc1cccc(NC(=O)c2ccc(-c3ccc(Br)cc3)o2)c1	-6	5	37	-12	14	15	2432
Cc1ccc(CN(C)C(=O)CSc2nnc3n2CCCCC3)c(C)c1	5	6	-7	-22	·	-2.8	3048
CC(=O)c1ccc(S(=O)(=O)N2CCN(C(=O)c3cccc(S(=O)(=O)N4CC(C)OC(C)C4)c3)CC2)cc1 (stereo unspecified)	7	5	2	-33	·	0.2	3899
CC(C)SCc1cc(N2CCCC2)nc(-c2ccccc2)n1	8	10	11	-11	-12	6.4	2602
Cc1ccc(C(=O)NC(=S)N2CCN(c3ccc([N+](=O)[O-])cc3)CC2)cc1	2	2	44	-15	-4	3.4	9303
CC1(C)Cc2nc(N)c(C(=O)NCCO)cc2CO1	·	·	5	-13	1	-4.5	4402
Cn1c(N2CCCC2)nc2c1c(=O)n(Cc1ccc(F)cc1)c(=O)n2C	-5	-2	-4	-22	0	-0.3	4097

Entries of single compounds, looked up by structure.
Entry for `CC1(C)Cc2nc(N)c(C(=O)NCCO)cc2CO1` = Mtb hypoxia inh = ·; Mtb hypoxia inh growth = ·; ugtP null kill = 5; PrP 5UTR inh = -13; BJeLR lethal = 1; Sa RN4220 lethal = -4.5; Bead autofluor = 4402
Entry for `Cc1ccc(CN(C)C(=O)CSc2nnc3n2CCCCC3)c(C)c1` = Mtb hypoxia inh = 5; Mtb hypoxia inh growth = 6; ugtP null kill = -7; PrP 5UTR inh = -22; BJeLR lethal = ·; Sa RN4220 lethal = -2.8; Bead autofluor = 3048
Entry for `COc1cccc(/C=C2\N=C3CCCCCN3C2=O)c1` = Mtb hypoxia inh = -1; Mtb hypoxia inh growth = -1; ugtP null kill = -7; PrP 5UTR inh = -52; BJeLR lethal = 7; Sa RN4220 lethal = 4.9; Bead autofluor = 3833

2 entries from above, with values under each structure:
The line under a structure holds: Mtb hypoxia inh | Mtb hypoxia inh growth | ugtP null kill | PrP 5UTR inh | BJeLR lethal | Sa RN4220 lethal | Bead autofluor
CC(=O)c1ccc(S(=O)(=O)N2CCN(C(=O)c3cccc(S(=O)(=O)N4CC(C)OC(C)C4)c3)CC2)cc1 (stereo unspecified)
  7 | 5 | 2 | -33 | · | 0.2 | 3899
CC(C)SCc1cc(N2CCCC2)nc(-c2ccccc2)n1
  8 | 10 | 11 | -11 | -12 | 6.4 | 2602

Returning to the listing, repeating the 2 entries before the break.
SMILES	Mtb hypoxia inh	Mtb hypoxia inh growth	ugtP null kill	PrP 5UTR inh	BJeLR lethal	Sa RN4220 lethal	Bead autofluor
CC1(C)Cc2nc(N)c(C(=O)NCCO)cc2CO1	·	·	5	-13	1	-4.5	4402
Cn1c(N2CCCC2)nc2c1c(=O)n(Cc1ccc(F)cc1)c(=O)n2C	-5	-2	-4	-22	0	-0.3	4097
Cn1c(SCC(=O)Nc2ccc3c(c2)OCO3)nnc1C(F)(F)F	10	-1	1	4	·	2.7	4329
COc1ccc(Cn2c(C)ccc2C)cc1	-7	1	-11	10	-8	-2.1	6169
Cc1ccc(OCC(=O)Nc2ccc(F)cc2)cc1C	-4	2	-18	-14	1	-2.1	9324
O=C(O)CSc1nnc(-c2ccc3c(c2)OCO3)o1	6	1	4	-7	8	2.0	16221*
C=C(C)[C@@H]1CC=C(CN2CCC(CCOC)(C(=O)OCC)CC2)CC1	0	4	19	-23	·	11	4496
COC(=O)c1cc2c(cc1Cl)N1CCCCCC1=NS2(=O)=O	-3	1	12	-22	2	5.7	4585
CCCCOC(=O)Nc1ccc(N2CCCCC2)cc1	0	6	-2	-60	-10	5.8	15945
C=CCNc1nc(C)c(CNc2c(C)cc(C)cc2C)nc1C#N	-4	8	9	-7	-5	8.5	3870
COc1ccc(C(=S)N2CCN(C)CC2)cc1Br	-8	7	-3	-1	-4	1.4	3056
CCn1c(SCC(=O)NCc2ccc3c(c2)OCO3)nnc1-c1cccs1	4	3	12	-18	-1	3.6	8008
CCOC(=O)c1ccc(N=Cc2c(O)n(-c3ccc(OC)cc3)c(=S)[nH]c2=O)cc1	-5	6	2	-18	-10	2.6	3437
COc1ccc(S(=O)(=O)N(CCc2ccccc2)CC(=O)NC(C)C)cc1	3	5	0	-22	6	1.0	22967*
S=C(Nc1ccccc1)Nc1ccc(Cl)cn1	24	26	6	-17	2	3.8	3342
Cc1nc2ccc(NC(=O)NCCCO)cc2s1	6	4	-7	-7	5	-12	2847
Cn1c(=O)[nH]c(=O)c2c1nc(Br)n2CCSc1nc2ccccc2o1	2	1	6	-19	8	8.2	22279*
COc1ccc(NC(=O)CSCC(=O)Nc2ccc(S(=O)(=O)N3CCOCC3)cc2)cc1	-12	2	-5	-16	·	-3.1	3846
Cn1cc(CN2CCCC(CO)(Cc3ccccc3)C2)c2ccccc21 (stereo unspecified)	-7	13	0	-17	5	0.3	4907
Cc1cccn2c(CNC3CCCc4ccccc43)c(C(=O)N3CCCCC3)nc12 (stereo unspecified)	9	12	3	-18	-1	2.2	4629
Cc1ccsc1/C=C1\Oc2cc(OCC(=O)c3ccccc3)ccc2C1=O	13	11	0	-31	-11	5.3	2291
COc1ccc(S(=O)(=O)NCc2cccnc2)cc1OC	-7	7	3	-16	-3	2.2	3965
CCCCNC(=S)Nc1ccc([N+](=O)[O-])cc1	1	5	-31	-10	1	5.7	2633
CCc1nnc(NC(=O)CSc2nnc(CNC(=O)c3cc(OC)c(OC)c(OC)c3)o2)s1	2	17	14	-24	-3	0.6	3293
O=c1c2[nH]c3ccccc3c2ncn1Cc1cccnc1	2	9	-2	-19	0	3.2	4249
O=C1NC(c2ccc(Br)cc2)Oc2ccccc21 (stereo unspecified)	-4	-6	-1	-33	2	-1.5	3408
Cc1cc(C)c(-c2c(O)c3c(n(C)c2=O)CC(C)(C)CC3=O)c(C)c1	4	5	3	-19	-2	2.1	2497
Cc1ccc(NC(=O)COc2ccc3oc4c(c3c2)CCCC4)nc1	·	·	-2	0	2	8.8	3797
O=[N+]([O-])c1cccc(-c2nc(-c3cccs3)c(-c3cccs3)[nH]2)c1	-6	3	-15	8	0	-9.8	2360
Cc1ccc(SCC(=O)NNC(=O)CNC(=O)c2ccc(Br)cc2)cc1	11	6	-1	-25	·	1.4	2925
COC(=O)CNC(=O)C1CCCN1C(=O)CNC(=O)OCc1ccccc1 (stereo unspecified)	7	-7	6	-14	1	0.1	4051
CC(C)(C)C(=O)NC(=S)Nc1ccc(Cc2ccncc2)cc1	·	·	18	-17	1	3.0	4133
COC(=O)CNc1nc(Cl)nc(N2CCC(C)CC2)n1	2	6	3	-32	9	4.7	4058
CCC(C)c1ccc(NC(=S)NCCn2cc(Br)cn2)cc1 (stereo unspecified)	5	5	1	-18	-8	5.8	4175
COc1ccc2oc(C(=O)OC(C)C(=O)N3C(C)CCCC3C)c(C)c2c1 (stereo unspecified)	·	·	1	-27	·	6.1	3836
Cc1nc(-c2cccnc2)sc1C(=O)Nc1ccc(F)cc1F	11	11	-12	-26	-6	5.8	10026
O=[N+]([O-])c1ccc(O)c(C=NN=C2c3ccccc3-c3ccccc32)c1	3	11	25	·	·	69	·
CC(C(=O)NCc1ccccc1)N1C(=O)c2ccccc2C1=O (stereo unspecified)	9	8	7	-24	-11	2.6	3546
COc1ccc(NC(=O)CN2CCN(Cc3ccc4c(c3)OCO4)CC2)cc1OC	·	·	5	-14	-14	1.8	4587
Cc1nn(Cc2cccc(C(=O)NCC(C)C)c2)c(C)c1Br	6	2	-3	-54	-9	3.1	4395
Cc1cccc(C)c1NC(=O)Cn1c(=O)n(CCCC(=O)NCc2ccco2)c(=O)c2sccc21	0	6	-6	-41	-2	5.3	22217*
CCSC1=C(C#N)C(c2ccc(OC)c(OC)c2)CC(=O)N1 (stereo unspecified)	·	·	5	-30	4	1.3	4581
Fc1ccc(C2CCCN2Cc2nc(Cc3ccccc3F)no2)cc1 (stereo unspecified)	7	1	8	-5	1	1.3	5602
COc1ccc2[nH]c3c(Cl)ncnc3c2c1	-6	0	2	-15	7	-2.0	2102
CCN(CC)C(=O)CN(c1cc(Cl)ccc1OC)S(=O)(=O)c1ccc(C)c([N+](=O)[O-])c1	4	5	9	-22	-5	2.0	2543
COc1ccc(N=Cc2c(O)c3ccccc3n2C(C)=O)cc1	9	3	2	-44	-8	5.9	7872
O=C1CC(c2ccccc2)CC(O)=C1C=Nc1ccc(Cl)cc1 (stereo unspecified)	10	0	-2	-17	-5	6.4	2706
CCN(CC)c1ccc(/C=C(/C#N)c2nc3ccc(C)cc3[nH]2)c(OC(C)C)c1	-25	3	-10	-8	6	-2.0	27707*
Cn1c(=O)c2c(ncn2CC(=O)OCC(=O)Nc2ccccc2Cl)n(C)c1=O	3	-1	0	-7	7	3.1	2456
Cn1c(Cc2ccccc2)nnc1SCC(=O)NC1CCCCC1	11	8	2	-12	0	-2.9	2557
FC(F)(F)c1cc(CCN2CCNC[C@@H]2Cc2ccccc2)cc(C(F)(F)F)c1	·	·	·	-22	-3	·	4191
CCC(CO)NCc1ccc(OCC(O)c2ccccc2)c(OC)c1 (stereo unspecified)	18	5	6	-5	-3	2.9	3553

The last 4 records of the section before are carried over, then new ones follow:
SMILES	Mtb hypoxia inh	Mtb hypoxia inh growth	ugtP null kill	PrP 5UTR inh	BJeLR lethal	Sa RN4220 lethal	Bead autofluor
Cn1c(=O)c2c(ncn2CC(=O)OCC(=O)Nc2ccccc2Cl)n(C)c1=O	3	-1	0	-7	7	3.1	2456
Cn1c(Cc2ccccc2)nnc1SCC(=O)NC1CCCCC1	11	8	2	-12	0	-2.9	2557
FC(F)(F)c1cc(CCN2CCNC[C@@H]2Cc2ccccc2)cc(C(F)(F)F)c1	·	·	·	-22	-3	·	4191
CCC(CO)NCc1ccc(OCC(O)c2ccccc2)c(OC)c1 (stereo unspecified)	18	5	6	-5	-3	2.9	3553
CCOC(=O)c1csc(NC(C)=O)n1	1	1	16	-21	-19	5.0	4232
CCc1nnc(SCC(=O)NC2CC2)n1CC	4	4	-3	-5	10	-1.8	4413
CC(NC(=O)c1nc[nH]c1C(=O)NCCCCCNC(=O)OC(C)(C)C)c1ccccc1 (stereo unspecified)	0&2	-1&6	1&6	·	·	1.7&8.5	·
CCCCC(=O)NC(c1ccccc1)c1ccc2cccnc2c1O (stereo unspecified)	·	·	·	21	25	·	3056
Cc1ccc(-c2noc(CN(C)C(=O)c3ccoc3C)n2)cc1	-14	-12	14	0	-6	3.7	4581
COC(=O)c1ccc(C2C(C(=O)c3cc4ccccc4o3)=C(O)C(=O)N2CCCN(C)C)cc1 (stereo unspecified)	·	·	2	-12	2	2.6	2386
COC(=O)CCCNC(=O)OCc1ccc([N+](=O)[O-])cc1	3	5	4	-21	20	9.1	3080
CCOc1ccc(S(=O)(=O)N(CC)CC)cc1NC(=O)c1ccc(N2CCCC2=O)cc1	·	·	·	-6	9	·	4547
COc1cc(Br)cc2cc(C(=O)NCC3CCCO3)c(=O)oc12 (stereo unspecified)	4	1	-2	-17	5	1.1	22610*
O=CN1CCN(C(=S)NC(=O)c2ccc(Cl)cc2)CC1	-11	-1	-4	1	-12	-1.5	6192
O=C(O)Cc1ccc(C(=O)c2ccccc2F)s1	1	0	3	4	-1	4.2	4673
C/C(C=NNC(=O)c1ccncc1)=C\c1ccc(C(C)C)cc1	11	9	37	·	·	11	·
CCC1CCC(NC(=O)Nc2cccc(OC)c2)CC1 (stereo unspecified)	-5	4	-3	-138	4	6.0	2151
Cc1ccc(C(=O)C(OC(=O)CNC(=O)c2ccc(Cl)cc2)c2ccccc2)cc1 (stereo unspecified)	13	9	-5	-15	11	29	21549*
CC(=O)NCCC(=O)Nc1cc(S(=O)(=O)N2CCCCC2)ccc1N1CCCCC1	-5	-1	0	-8	·	1.1	8229
